Compound activity (PubChem)
Beta2AR agonist: activates human beta-2 adrenergic receptor causing internalization. P07550. Am2.2-beta2AR cells, FAP receptor internalization, flow cytometry; reference of the scale not given here. response, % (test concentration not listed). actives 0.43% (n = 340,000). AID 504454;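 active = response above a set limit, near 3 SD of response in nonfluorescent compounds, cut at about 42% in these data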;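 also: stock transfer was 100 nL into about 11 µL; a reference agonist was the positive control; negative values mostly stem from fluorescent compounds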
LANA-H2B inh: blocks KSHV LANA binding to histone H2A/H2B; Q9QR71; cell-free LANA-H2A/H2B peptide, fluorescence polarization; inhibition, % (concentration not given with the values); actives 0.6% (n = 320,000); in the data active = inhibition mostly above about 10%, no sharp cut-off; inactive = mostly below about 6.7%;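 also: stock transfer was 7.5 nL into about 10 µL; 0% = median of vehicle wells and 100% = median of positive control wells; one replicate is shown; the record names a cut of 25% in any replicate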
Target sequence (Q9QR71 whole entry, looked up): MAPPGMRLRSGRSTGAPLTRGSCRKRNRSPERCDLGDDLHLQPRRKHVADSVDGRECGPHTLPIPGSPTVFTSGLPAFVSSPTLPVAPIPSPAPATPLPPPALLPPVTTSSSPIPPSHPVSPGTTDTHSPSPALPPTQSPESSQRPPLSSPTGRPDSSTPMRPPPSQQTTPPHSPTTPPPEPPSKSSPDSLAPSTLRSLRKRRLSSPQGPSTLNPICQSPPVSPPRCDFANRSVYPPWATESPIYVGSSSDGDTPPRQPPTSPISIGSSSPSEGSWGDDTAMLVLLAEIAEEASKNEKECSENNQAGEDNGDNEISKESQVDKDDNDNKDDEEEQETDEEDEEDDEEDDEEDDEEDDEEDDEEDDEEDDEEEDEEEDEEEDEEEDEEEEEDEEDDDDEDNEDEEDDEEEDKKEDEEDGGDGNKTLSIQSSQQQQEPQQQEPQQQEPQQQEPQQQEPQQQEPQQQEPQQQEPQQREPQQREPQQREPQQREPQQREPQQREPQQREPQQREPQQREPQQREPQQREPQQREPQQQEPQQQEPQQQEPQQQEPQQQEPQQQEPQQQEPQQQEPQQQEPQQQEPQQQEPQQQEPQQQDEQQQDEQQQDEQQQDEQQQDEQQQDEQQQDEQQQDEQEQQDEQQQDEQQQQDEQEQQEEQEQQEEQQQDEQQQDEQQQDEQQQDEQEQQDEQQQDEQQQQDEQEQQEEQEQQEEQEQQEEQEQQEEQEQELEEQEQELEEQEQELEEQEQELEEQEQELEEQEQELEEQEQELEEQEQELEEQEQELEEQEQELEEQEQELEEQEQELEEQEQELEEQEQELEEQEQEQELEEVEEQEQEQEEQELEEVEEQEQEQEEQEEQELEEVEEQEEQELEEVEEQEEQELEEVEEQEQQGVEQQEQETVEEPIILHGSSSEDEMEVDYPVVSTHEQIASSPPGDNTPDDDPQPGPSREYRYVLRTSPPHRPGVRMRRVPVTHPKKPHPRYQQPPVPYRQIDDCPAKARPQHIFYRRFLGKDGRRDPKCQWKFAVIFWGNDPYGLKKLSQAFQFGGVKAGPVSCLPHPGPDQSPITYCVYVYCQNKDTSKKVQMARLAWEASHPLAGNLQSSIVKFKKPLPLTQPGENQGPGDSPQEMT
HNF4A DNA FP: change in binding of human HNF4 alpha to DNA. P41235. actives 0.3% (n = 360,000). HNF4a-FITC DNA binding, fluorescence polarization, 1 h. activity change, % at 10 µM; in the data active = activity change above about 30%, passing the limit was not always enough;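 also: controls were the assay level and a saturating level of protein; the project sought stronger binding though the title names inhibitors; some compounds called inactive have numbers as strong as hits; positive values seem to mean higher polarization but the record does not say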
Bfl-1 A1 inh: inhibitors of the anti-apoptotic protein A1, read as caspase activation; MEF A1-2A-BIM cells, Caspase-Glo 3/7 luminescence, 3 h; percent of clofoctol response, vehicle zero; caspase activation, % (test concentration not listed); actives 0.066% (n = 330,000);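 active = over half of replicate activation scores above 10%, or exactly half above 10 with the replicate mean above 10; inconclusive = replicate mean below 10 yet half the replicates above 10; inactive = over half of replicates below 10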;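 also: wells of about 30 µL received 50 nL stock; many hits fall short of the cut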
UCH37 inh: inhibitors of human deubiquitinating enzyme UCH37. actives 0.33% (n = 330,000). purified proteasome/UCH37, Ub-AMC cleavage fluorescence. inhibition, % (concentration not given with the values). Q9Y5K5. AID 588478;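 active = mean of two replicates above 20%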;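 also: 0% = compound-free wells with enzyme and 100% = wells lacking proteasome; stock transfer was 100 nL into about 20 µL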
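assay system = human UCH37 enzyme supplied as purified proteasome complex | amount = proteasome at 0.15 nM in the dispensed enzyme solution | schedule = 30 min compound-proteasome preincubation then 25 min substrate reaction, room temperature | measured by = fluorescence, ex 355 nm, em 460 nm | benchmarks = no-proteasome wells (full inhibition) and compound-free wells (no inhibition)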
Vif TR-FRET: inhibitors of Vif binding to APOBEC3G peptide, primary screen, biochemical, TR-FRET, GST-Vif 1-94, biotin-A3G peptide, dose response retest (AID 1117319) | TR-FRET GST-Vif / biotin-A3G peptide binding; higher % means a stronger effect; test concentration not given here; strong numbers were not always called active | inhibition, %, or IC50 in µM where a hit was titrated | actives 0.57% (n = 260,000);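 active = above the screen mean plus three standard deviations and confirmed in dose response; inconclusive = results disagree or hit not tested in dose response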;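 also: Vif residues 1-94 fused to GST binding biotinylated APOBEC3G peptide 110-148; 0% = full assay without inhibitor and 100% = GST in place of GST-Vif; retest series ran down from 100 µM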
Ecoli growth: inhibitors of Escherichia coli growth. OD600, 23 h; hits give low values. OD600 absorbance (concentration not given with the values). actives 0.21% (n = 330,000);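 active = OD600 absorbance below the run mean of sample wells minus 3.6 SD, in any replicate, cut at about 0.56 in these data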;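 also: stock transfer was 300 nL into about 60 µL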
Active calls of the source: *; ? = inconclusive; · = no result given. This is a random part of the collection; overall some 2.1% were active at least once.

| mol | UCH37 inh | Ecoli growth | LANA-H2B inh | Beta2AR agonist | Vif TR-FRET | Bfl-1 A1 inh | HNF4A DNA FP |
| --- | --- | --- | --- | --- | --- | --- | --- |
| CCCCOc1ccc2c(c1)/C(=C(\C(Cl)=C(Cl)Cl)[N+](=O)[O-])N2 | -6.3 | 0.748 | 3.1 | -269.8 | 10.2% | 0.8 | 13.9 |
| O=C(O)c1ccc(N2CC3CC(C2)c2cccc(=O)n2C3)c(NS(=O)(=O)c2cccc(C(F)(F)F)c2)c1 (stereo not drawn) | 0.9 | 0.633 | 5.8 | 6.8 | 5.5% | 0.4 | -0.9 |
| O=C(N/N=C/c1ccccc1F)c1ccccc1OCc1ccccc1 | · | · | 1.4 | -0.4 | · | -0.1 | 5.7 |
| CC(=O)c1cccc(NC(=O)CSc2nnc(-c3ccncc3)o2)c1 | -2.9 | 0.698 | 2.5 | -9.7 | 4.5% | -2.0 | -3.1 |
| C=CCOC(=O)C1=C[C@@H](c2coc3ccccc3c2=O)C[C@@H](OCCCCO)O1 | 1.4 | 0.802 | -4.6 | 19.0 | · | -1.5 | -7.1 |
| CCN1CCN(C(=O)C(=O)c2cn(CC(=O)N3CCCCCC3)c3ccccc23)CC1 | 5.0 | 0.725 | -1.1 | 4.6 | · | -0.1 | 3.3 |
| CCC(NS(=O)(=O)c1ccc(C)cc1)C(=O)N1CCOCCOCCOCCOCC1 (stereo not drawn) | 1.0 | 0.666 | -2.9 | 0.4 | · | 0.7 | 3.4 |
| O=C(c1ccco1)N1N=C(c2ccc(Cl)cc2)CC1(O)C(F)(F)F (stereo not drawn) | -1.2 | 0.711 | -0.1 | -8.2 | -7.8% | 0.1 | 2.2 |
| C=CCN1C(=O)C(CC(=O)NCC)SC1=Nc1ccccc1OC (stereo not drawn) | -0.2 | 0.706 | -0.1 | -3.3 | 7.7% | 0.8 | -6.2 |
| Cc1ccc(C(=O)CC2(O)C(=O)N(C)c3ccccc32)o1 (stereo not drawn) | 5.2 | 0.785 | 0.1 | -0.1 | 25.4% | 0.5 | -4.8 |
| Clc1ccc(-n2nnc(-c3ncc[nH]3)n2)cc1Cl | -0.3 | 0.606 | 2.2 | -2.4 | · | -1.4 | -3.0 |
| O=[N+]([O-])c1cccc(S(=O)(=O)Nc2ccc(Cc3ccncc3)cc2)c1 | 2.8 | 0.624 | 3.4 | -1.1 | -1.4% | -0.2 | -1.5 |
| O=c1c2c3c(sc2nc2n1CCC2)CCC3 | -2.9 | 0.679 | 0.7 | 4.2 | -2.2% | -0.6 | -2.8 |
| O=C(CSc1ncnc2sccc12)Nc1ccccc1F | 0.7 | 0.705 | -0.1 | -5.4 | -5.4% | 0.2 | 0.3 |
| O=C(COC(=O)CNC(=O)c1ccc2c(c1)OCO2)Nc1ncc(Cl)cc1Cl | 2.6 | 0.676 | 5.0 | 6.2 | 18.1% | -0.1 | -2.8 |
| Cc1c(C(=O)Nc2nnc(C3CC3)s2)oc2ccccc12 | 0.1 | 0.661 | -1.9 | -13.3 | 11.7% | -2.3 | -0.8 |
| COCCCn1c(SCC(=O)NC2CCCCC2)nc2ccccc2c1=O | -0.1 | 0.658 | 2.6 | -14.0 | · | 0.0 | -0.3 |
| COc1ccc(CNC(=O)c2noc3c2CCCCC3)cc1 | 1.0 | 0.637 | -3.4 | -1.2 | 1.7% | 0.6 | -0.5 |
| CC(C)=C[C@H]1C[C@H](C)[C@H]2CC[C@H](C)c3c(O[C@@H]4OC[C@@H](O)[C@H](O)C4O)c(O)c(C)c1c32 (stereo partly drawn) | -2.1 | 0.745 | 3.2 | 10.7 | · | -1.2 | -1.1 |
| COC(=O)C1=C(CN2CCSCC2)NC(=O)NC1c1cc(C)ccc1C (stereo not drawn) | 2.9 | 0.793 | 0.2 | 0.8 | 24.6% | 0.1 | 3.3 |
| O=C(O)c1ccccc1SCCS(=O)(=O)c1ccc(Cl)cc1Cl | -1.1 | 0.69 | 5.7 | 6.0 | -5.4% | ? | 2.0 |
| N#Cc1cc(-c2ccccc2)cnc1Sc1ccc(Cl)cc1 | -10.7 | 0.725 | 1.8 | 0.7 | -4.3% | 0.1 | -1.3 |
| COc1cc(/C=N/NC(N)=O)ccc1OCC(=O)N1C(C)CCCC1C (stereo not drawn) | · | · | 4.8 | 5.1 | -6.3% | 1.4 | 5.6 |
| COc1ccc(Cn2c(C3CCCCC3)nc3c(c(=O)c4ccccc4n3C)c2=O)cc1 | 8.6 | 0.685 | 2.1 | · | 6.0% | 0.8 | · |
| Nc1ccc2c(c1)C(=O)c1ccc(N)cc1-2 | 7.2 | 0.617 | · | 12.9 | -21.9% | · | 2.1 |
| COc1cc(CNc2ccc(N3CCOCC3)cc2)cc(Br)c1OC | · | · | -1.9 | 4.0 | ? | 0.1 | -0.7 |
| C=CCNC(=O)CN1C(=O)C2C3c4ccccc4C(c4ccccc43)C2C1=O (stereo not drawn) | 3.0 | 0.71 | 3.4 | -4.7 | -4.8% | 0.6 | 1.3 |
| O=C(/C=C/c1ccccc1Cl)N1CCCN(C(=O)/C=C/c2ccccc2Cl)CC1 | 4.0 | 0.636 | -6.4 | -9.3 | 20.6% | -1.3 | 3.1 |
| [N-]=[N+]=NC[C@H](Cc1ccccc1)N1CC[C@@H](NC(=O)OCc2ccccc2)CCC1=O | 3.3 | · | 1.7 | -0.7 | · | 1.9 | -0.6 |
| Cc1ccc(N2C(=O)N(CC(=O)Nc3ccc(C)c(C)c3[N+](=O)[O-])C(=O)C2C)cc1 (stereo not drawn) | 1.7 | 0.655 | 129.7* | -2.0 | 3.2% | 0.3 | 5.2 |
| CCOC(=O)Cc1csc(NC(=O)c2ccc(C)c(S(=O)(=O)N3CCOCC3)c2)n1 | 1.3 | 0.68 | · | 24.2 | · | · | 0.5 |
| C=CCCCCCCCCc1nc(=S)[nH][nH]1 | 4.8 | 0.761 | -0.1 | 4.2 | -0.9% | 0.3 | 0.6 |
| COc1ccc(S(=O)(=O)N2CCC(O)(c3ccc(Cl)cc3)CC2)cc1OC | 1.6 | 0.692 | 1.2 | -39.9 | · | 0.1 | 1.2 |
| CNC(=O)c1ccsc1NC(=O)C1CCCN1S(=O)(=O)c1cccs1 (stereo not drawn) | 5.6 | 0.679 | 4.0 | 4.5 | -0.6% | 0.3 | 1.3 |
| CCCCC1(CO)C(=O)N(c2ccccc2)N(c2ccccc2)C1=O | 3.6 | 0.706 | -1.4 | -3.3 | 2.5% | 0.0 | -1.1 |
| O=C(NCc1cccnc1)c1ccc(COc2ccc3c(c2)CCC3)o1 | 2.3 | 0.677 | -5.7 | -1.9 | 2.7% | -0.3 | 2.1 |
| Cc1ccc2nc(NC(=O)c3ccc(Cn4cc(Cl)cn4)o3)sc2c1 | -125.5 | 0.75 | -1.5 | -2.3 | -17.7% | 0.9 | -1.0 |
| Nc1nc(Nc2ccccc2)nc(NCCO)c1[N+](=O)[O-] | 15.6 | 0.654 | 0.7 | 7.4 | -9.7% | 0.6 | 2.6 |
| CCN(C[C@H]1N[C@@](CC)(C(=O)OC)[C@H]2C(=O)N(C)C(=O)[C@@H]12)S(=O)(=O)c1ccc(OC(F)(F)F)cc1 | 4.2 | 0.704 | 0.0 | 0.3 | 7.2% | 0.9 | -3.0 |
| Cc1nc(Cl)sc1C(=O)O | -5.4 | 0.707 | -2.8 | -0.4 | 0.1% | -0.8 | -0.4 |
| O=S(=O)(Nc1ccc(Oc2ncccn2)c(Cl)c1)c1ccc(Cl)cc1 | 1.6 | 0.684 | -6.8 | 0.6 | -2.9% | -1.2 | -3.3 |
| CCN1CC2([N+](=O)[O-])C=CC(=O)C([N+](=O)[O-])(C1)C2CC(=O)c1ccccc1 (stereo not drawn) | 10.4 | 0.713 | -2.5 | 2.7 | ? | -0.4 | -1.5 |
| Cc1nc(-c2ccc(NC(=O)C3CCCCC3)cc2)cs1 | 5.5 | 0.722 | 1.8 | 6.7 | -1.8% | -0.3 | -3.6 |
| CCOC(=O)N1CCN(C(=O)Nc2ccc3oc(C)nc3c2)CC1 | 0.4 | 0.689 | -4.1 | -5.7 | 8.7% | -0.9 | -6.0 |
| COc1cc(C2c3c(-c4ccccc4O)n[nH]c3C(=O)N2Cc2ccco2)cc(OC)c1OC (stereo not drawn) | 1.6 | 0.685 | 0.0 | 2.1 | 6.5% | 0.4 | 0.1 |
| CCn1nnnc1-c1ccc(OC)c(S(=O)(=O)Nc2ccc(OC)cc2)c1 | 5.9 | 0.666 | 0.9 | -4.9 | 3.7% | -0.1 | -0.6 |
| N#CCc1c(C#N)c(N)nc(Nc2ccccc2)c1C#N | -15.0 | 0.706 | 3.3 | -1.2 | 21.7% | -0.4 | -3.2 |
| COc1ccc2[nH]c(C)c(CCNC(=S)Nc3cccc(C)c3C)c2c1 | 4.6 | 0.744 | 1.2 | 11.9 | 3.0% | 0.0 | -0.1 |
| COc1ccc(N2CCN(C(=O)CCCn3c(=O)[nH]c4ccsc4c3=O)CC2)cc1 | 4.9 | 0.657 | -3.3 | -22.5 | 0.9% | 0.5 | 3.1 |
| Cc1ccc(OCC(=O)Nc2ccc3c(c2)OCCO3)cc1C | 5.7 | 0.655 | -1.7 | -0.8 | -3.9% | -0.3 | -0.3 |
| Cc1cc(OCC(=O)NNC(=O)c2cccc(F)c2)ccc1Cl | -0.3 | 0.708 | -0.9 | -6.3 | 0.8% | 0.2 | 4.2 |
| CCn1c(C)cc(C=C2C(=O)c3ccccc3C2=O)c1C | 3.8 | 0.719 | · | 9.8 | 28.5% | · | 3.0 |
| CC(=O)O/N=C(\N)Cc1ccc(-c2csnn2)cc1 | · | · | -5.4 | -0.8 | 28.4% | 0.1 | 3.2 |
| O=C(NNS(=O)(=O)c1ccccc1[N+](=O)[O-])c1cccc(Cl)c1 | 0.4 | 0.657 | -1.8 | -2.1 | -8.6% | 0.0 | 0.7 |
| O=C(COc1ccccc1[N+](=O)[O-])Nc1cccc(S(=O)(=O)NC2=NCCCCC2)c1 | 0.3 | 0.637 | 4.8 | 1.6 | 5.3% | 0.4 | -2.3 |
| CCOC(=O)C1CCN(C(=O)CCCn2c(=O)c3cccn3c3cccnc32)CC1 | -6.3 | 0.706 | -2.9 | -6.2 | 6.3% | -1.1 | -41.9 |

Further structures:
| mol | UCH37 inh | Ecoli growth | LANA-H2B inh | Beta2AR agonist | Vif TR-FRET | Bfl-1 A1 inh | HNF4A DNA FP |
| --- | --- | --- | --- | --- | --- | --- | --- |
| CC(=O)c1cc2c(cc1NC(=O)Cc1ccsc1)OCO2 | -22.7 | 0.714 | 7.3 | 2.2 | -4.2% | 1.3 | 0.2 |
| Cc1ccc(N2CCN(S(=O)(=O)c3c(C)nc4scc(C)n4c3=O)CC2)c(C)c1 | -0.2 | 0.688 | -2.2 | 3.9 | 3.2% | 1.9 | -2.1 |
| CCCCC1(c2ccc(F)cc2)NC(=O)N(CC(=O)Nc2ccc(N3CCOCC3)cc2)C1=O (stereo not drawn) | 2.1 | 0.695 | -0.6 | -0.8 | · | -0.6 | 0.6 |
| Cc1nc(C(=O)Nc2ccc(Cl)cc2Cl)nn1-c1cc(OC(C)C)c(Cl)cc1Cl | 2.9 | 0.744 | 4.6 | -0.9 | 1.0% | 0.2 | 2.3 |
| Cc1nc2scc(C)n2c(=O)c1S(=O)(=O)Nc1ccc(OC(F)(F)F)cc1 | 7.3 | 0.688 | -0.2 | 2.2 | · | -1.2 | -0.4 |
| CC1(C)CC(=O)C/C(=N/NC(=O)COc2ccc(Cl)cc2Cl)C1 | · | · | 1.0 | -13.2 | 2.6% | -0.9 | -1.3 |
| O=S(=O)(Nc1ccc(Cl)cn1)c1ccc(F)cc1 | -1.0 | 0.662 | -5.5 | 0.6 | · | 0.1 | 0.7 |
